ClpP mod – qHTS Assay for Activators of ClpP; ATP-dependent Clp protease proteolytic subunit (Bacillus subtilis (strain 168)), P80244; purified B. subtilis ClpP, FRET peptide cleavage, 20 min; Potency, µM (series often up to 57.5 µM), without a hit: top-dose activity change, negative = active; 340,000 tested, 1.9% active; AID 651965, 2013; active = well fitted falling curve with a large enough effect; inconclusive = small, poorly fitted or top-dose-only effect; inactive = no such curve, though single readings can be large or run the other way; note: the source files actives as falling curves though it sought activators and does not explain the sign; nearly all actives have a fitted effect of over 65% in size; many hits overshoot -100%
Target sequence (P80244 whole entry, looked up): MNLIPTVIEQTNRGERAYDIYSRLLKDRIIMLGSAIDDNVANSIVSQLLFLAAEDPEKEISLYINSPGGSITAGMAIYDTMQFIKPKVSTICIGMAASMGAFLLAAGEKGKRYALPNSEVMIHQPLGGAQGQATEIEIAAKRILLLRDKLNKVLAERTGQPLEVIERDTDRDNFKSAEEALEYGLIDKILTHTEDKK
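Purified B. subtilis ClpP, 10 microg/mL final in Tris/HCl pH8 with KCl, BSA, glycerol and Tween-20, cleaved an Abz/nitrotyrosine-quenched decapeptide. Fluorescence (ex 320, em 430) was read at 0 and 20 min at room temperature. Delta was normalized to 5.8 microM ADEP and DMSO/no-enzyme controls.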
The depositor's hits bear a star; ? = inconclusive. Potency is the fitted concentration of half-maximal effect.

entry | mol | ClpP mod
1 | COc1cc(OC)cc(C2=Cc3ccc(OC)cc3C(CC(C)=O)N2c2ccc(-c3cccs3)cc2)c1 (centres undefined) | -4.1%
2 | Cc1ccc(NC(=O)Cn2cc(S(=O)(=O)c3ccccc3)c(=O)c3cc4c(cc32)OCO4)cc1 | -29%
3 | c1ccc2c(c1)CN1C(=N2)COc2ccccc2C1c1nc2ccccc2[nH]1 (centres undefined) | -2.4%
4 | CCN(C(=O)c1sc2nc3n(c(=O)c2c1C)CCCCC3)c1ccccc1F | 0.8%
5 | O=C(COc1ccc(F)cc1)NCC(c1ccc(Cl)cc1)N1CCCCC1 (centres undefined) | -1.2%
6 | CCOc1ccc(CNC(=O)c2c(C)nn(-c3ccc(F)cc3)c2-n2cccc2)cc1 | 0.9%
7 | CC(C)CC(=O)Nc1c(C(=O)N2CCN(c3ccccc3)CC2)oc2ccccc12 | -0.3%
8 | COc1ccc(OC)c(NC(=O)/C=C/c2ccc(C)o2)c1 | -1.7%
9 | O=C(Nc1ccc(F)cc1)[C@@H](c1ccccc1)N1Cc2ccccc2C1=O | -0.5%
10 | CCCCOc1ccc(C(=O)NCCc2sc(-c3ccc(OC)c(OC)c3)nc2C)cc1 | 3.9%
11 | NC(=O)c1cc(S(=O)(=O)N2CCN(c3ccc(F)cc3)CC2)cs1 | 0.7%
12 | COc1cccc(CNC(=O)CCNS(=O)(=O)c2ccc3c(c2)CCCC(=O)N3)c1 | 1.8%
13 | O=C1c2ccccc2C(c2nnnn2Cc2ccccc2)N1CCc1ccccc1F (centres undefined) | 1.7%
14 | Fc1ccc(-c2noc3ncnc(Nc4ccc(F)cc4F)c23)cc1 | -2.1%
15 | COc1cccc(NC(=O)CN2C(=O)CC(c3ccco3)Sc3ccccc32)c1 (centres undefined) | 0.6%
16 | COC1=CC(=O)OC(c2ccccc2)C1 (centres undefined) | -1.5%
17 | COc1ccc(NC(=O)C(CC(C)C)NS(=O)(=O)c2ccc3c(c2)oc(=O)n3C)cc1Cl (centres undefined) | -1.5%
18 | COc1ccccc1NC(=O)CSc1ccc(-c2sc(C)nc2C)nn1 | 0.4%
19 | CCc1cccc(C)c1NS(=O)(=O)c1ccc2c(c1)CC(C)N2C(=O)C1CC1 (centres undefined) | -0.2%
20 | CCc1ccc(NC(=O)N2CCN(c3nnc(C)c4c(C)n(-c5ccc(Cl)cc5)nc34)CC2)cc1 | -28%

Reformatted with each value named: entries from further up.
6) CCOc1ccc(CNC(=O)c2c(C)nn(-c3ccc(F)cc3)c2-n2cccc2)cc1
  ClpP mod = 0.9%
5) O=C(COc1ccc(F)cc1)NCC(c1ccc(Cl)cc1)N1CCCCC1 (centres undefined)
  ClpP mod = -1.2%
11) NC(=O)c1cc(S(=O)(=O)N2CCN(c3ccc(F)cc3)CC2)cs1
  ClpP mod = 0.7%
19) CCc1cccc(C)c1NS(=O)(=O)c1ccc2c(c1)CC(C)N2C(=O)C1CC1 (centres undefined)
  ClpP mod = -0.2%

Back to the main list with the 2 entries that preceded the break.
entry | mol | ClpP mod
19 | CCc1cccc(C)c1NS(=O)(=O)c1ccc2c(c1)CC(C)N2C(=O)C1CC1 (centres undefined) | -0.2%
20 | CCc1ccc(NC(=O)N2CCN(c3nnc(C)c4c(C)n(-c5ccc(Cl)cc5)nc34)CC2)cc1 | -28%
21 | Cn1c(=O)c2c(n3ncnc13)NC(=O)CC2c1cccc(F)c1 (centres undefined) | -12%
22 | CCCCN(C)CCCNC(=O)c1cc(=O)[nH]c2ccc(S(=O)(=O)N3CCCCC3)cc12 | -5.3%
23 | COc1ccc(OC)c(CNC(=O)C2CCCN(c3ncnc4onc(-c5ccc(F)cc5)c34)C2)c1 (centres undefined) | 0.7%
24 | COc1ccc(C2=Nc3ccccc3N(CC(=O)Nc3cccc(C(C)=O)c3)C(=O)C2)cc1 | -2.4%
25 | COc1ccc(CNC(=O)CCc2cn(Cc3cc(C)ccc3C)c3ccccc23)cc1OC | ?
26 | O=[N+]([O-])c1cc(-c2nc(-c3ccccc3)no2)ccc1N1CCN(c2ccccc2)CC1 | 0.8%
27 | O=C(Cn1c(=O)c2cccn2c2ccc(F)cc21)N1CCN(c2ccccc2F)CC1 | ?
28 | O=C(NCCc1cccs1)c1ccc(Cn2c(SCc3cccc(F)c3)nc3cccnc32)cc1 | ?
29 | Cc1cc(C)cc(-n2c(SCC(=O)N3CCCC3)nc3c([nH]c4ccccc43)c2=O)c1 | -5.5%
30 | CCc1ccc(NC(=O)C2=C(C)C(=O)OC23CCCCC3)cc1 | 1.1%
31 | Cc1ccccc1-c1noc(-c2ccccc2OCC(=O)Nc2ccccc2[N+](=O)[O-])n1 | -0.3%
32 | COc1cccc(C(Nc2ccccc2)c2ccc3ccc(C)nc3c2O)c1 (centres undefined) | -1.2%
33 | CCOCCCNC(=O)CCc1nnc2ccc(N3CCN(c4cccc(OC)c4)CC3)nn12 | -2.6%
34 | COc1ccc(NC(=O)c2c(C)oc3ccc(O)c(CN4CCCC(C)C4)c23)cc1Cl (centres undefined) | -0.6%
35 | CCOCCCNC(=O)C(NC(=O)C1CCC(C)CC1)C(C)C (centres undefined) | -0.5%
36 | CC1=C(C(=O)Nc2cccc(F)c2)C2(CCCCCC2)OC1=O | -2.0%
37 | Cc1ccc(C(=O)Nc2cc(-c3cn4cccnc4n3)ccc2C)cc1C | 4.0%
38 | CCOc1ccc(OCC)c(S(=O)(=O)N2CCN(c3cccc(C)c3C)CC2)c1 | 1.0%
39 | Cc1ccc(S(=O)(=O)c2nnn3c2nc(Nc2ccc(C(C)C)cc2)c2sccc23)cc1C | -0.2%
40 | CC(=O)N1c2ccccc2N=C(c2ccc3c(c2)OCO3)C1C(=O)NCc1ccccc1 (centres undefined) | -0.9%
41 | CC(C)NC(=O)C1C(c2ccccc2)=Nc2ccccc2N1C(=O)c1cc(Cl)cc(Cl)c1 (centres undefined) | -0.6%
42 | CCOC1=C2CN(S(=O)(=O)c3ccc(C)cc3)C(c3ccc(CC)cc3)CC2N(S(=O)(=O)c2ccc(C)cc2)C(c2ccc(CC)cc2)C1 (centres undefined) | 0.1%
43 | CCc1ccc(NC(=O)c2ccc(NS(=O)(=O)c3c(C)noc3C)cc2)cc1 | -5.7%
44 | Cc1ccc(NC(=O)CCCc2nnc3n(C)c(=O)c4sccc4n23)cc1C | -0.7%
45 | CC(CNC(=O)Cn1ccc2cc(S(=O)(=O)N3CCCCC3)ccc21)c1ccccc1 (centres undefined) | -15%
46 | CCCCCc1nn2cc(-c3ccccc3)nc2s1 | 0.6%
47 | COc1cc(Cl)ccc1OC(=O)c1cn(-c2ccccc2OC)c(=O)c2ccccc12 | -3.9%
48 | CC(C)(C)C(=O)NC1(C(F)(F)F)C(=O)Nc2c1c(=O)[nH]c(=O)n2-c1ccccc1 (centres undefined) | -0.1%
49 | Oc1c(C(c2cccc(Cl)c2)N2CCOCC2)sc2nc(-c3ccco3)nn12 (centres undefined) | -1.7%
50 | CC(C)CNC(=O)C(=O)Nc1c2c(nn1-c1ccc(Cl)cc1)CSC2 | -1.7%
51 | CCCC(=O)Oc1c(Sc2ccc(Cl)cc2)c(C)nn1-c1ccccc1 | -3.5%
52 | COc1cccc(NC(=O)C2CC(=O)N(c3ccc(Br)cc3)C2)c1 (centres undefined) | 1.1%
53 | CC(C)(C)NC(=O)C(c1ccc(-c2ccccc2)cc1)n1c(=O)c(-c2ccccc2)nc2ccccc21 (centres undefined) | ?
54 | CCc1ccc(NC(=O)Cn2nc(SC)c(S(=O)(=O)c3ccc(OC)cc3)c2N)cc1 | -1.0%
55 | Cn1c(=O)[nH]c2cc(-c3noc(-c4ccc(C#N)cc4)n3)ccc21 | -8.4%
56 | COc1cc(NC(=O)CCCOc2cc(=O)n(C)c3ccccc23)cc(OC)c1OC | 0.4%
57 | COc1ccccc1CNc1ncnc2onc(-c3ccc(Cl)cc3)c12 | -21%
58 | COc1cccc(-c2nc(CS(=O)CC(=O)N3CCN(c4cccc(C(F)(F)F)c4)CC3)c(C)o2)c1 (centres undefined) | -1.7%
59 | CC1(C(=O)Nc2ccc3c(c2)OCCO3)CN(S(C)(=O)=O)CC(=O)N1CCc1c[nH]c2ccccc12 (centres undefined) | -0.4%
60 | O=C(CSc1ncc2c(n1)-c1ccccc1N(Cc1ccc(Cl)cc1)S2(=O)=O)c1ccccc1 | -10%

Quoted from above, nos. 1 to 2
entry | mol | ClpP mod
1 | COc1cc(OC)cc(C2=Cc3ccc(OC)cc3C(CC(C)=O)N2c2ccc(-c3cccs3)cc2)c1 (centres undefined) | -4.1%
2 | Cc1ccc(NC(=O)Cn2cc(S(=O)(=O)c3ccccc3)c(=O)c3cc4c(cc32)OCO4)cc1 | -29%

Copied from the list.
Entry of entry 22 under ClpP mod: -5.3%
Entry of entry 36 under ClpP mod: -2.0%

(listing goes on)
entry | mol | ClpP mod
61 | O=C(Cc1ccc(Cl)cc1)Nc1ccc2oc(-c3ccc(F)cc3)nc2c1 | ?
62 | CNc1c(Br)cc(C(O)C2=CCc3ccccc32)cc1Br (centres undefined) | -0.6%
63 | CCOc1ccc(/C=C/c2nc(C#N)c(N(C)C)o2)cc1 | 4.7%
64 | CCOc1ccccc1N(C)C(=O)c1c2c(nc3ccccc13)C(=O)N(C1CCCCC1)C2 | -3.2%
65 | Cn1c(=O)n(-c2ccc3c(c2)OCO3)c2nc(-c3ccc(Cl)cc3)nc(C(N)=O)c21 | -11%
66 | COc1ccc(NC(=O)Cn2cnc3sc(C)c(S(=O)(=O)N4CCN(c5ccccc5OC)CC4)c3c2=O)cc1OC | -2.6%
67 | CSc1nn(Cc2ccc(Cl)cc2)c(N(C(C)=O)C(C)=O)c1S(=O)(=O)c1ccccc1 | -1.0%
68 | Cc1cc(C)c(/C=C/c2onc(C)c2S(=O)(=O)N2CCC(C(=O)Nc3ccc(Cl)c(C(F)(F)F)c3)CC2)c(C)c1 | -4.6%
69 | CCc1ccc2c(c1)NC(c1ccc(F)cc1)=NC(c1ccncc1)=N2 | -2.0%
70 | Cc1cc(Cl)ccc1NC(=O)c1cc(S(=O)(=O)N2CCOCC2)cn1C | -2.5%
71 | COC(=O)c1ccccc1NC(=O)[C@H]1O[C@@H]2OC(C)(C)O[C@@H]2[C@H]2OC(C)(C)O[C@H]21 | -21%
72 | CCc1ccc(NC(=O)CC2C(=O)N(c3cccc(C)c3)C(=O)N2Cc2ccc(F)cc2)cc1 (centres undefined) | 1.4%
73 | CC1CCCCN1C(=O)CSc1nc2ccccc2nc1Cc1ccccc1 (centres undefined) | -3.2%
74 | COc1ccc(N2CCN(c3ncnc4c3nc3n4CCCCC3)CC2)cc1 | -29%
75 | O=C(c1ccc2c(c1)N(Cc1ccc(Cl)cc1)C(=O)c1ccccc1S2(=O)=O)N1CCc2ccccc21 | -0.6%
76 | CN(C)CCCCCCNc1nccc(N2CCN(C)CC2)n1 | -4.3%
77 | COc1ccc(NC(=O)CSC2=Nc3ccccc3C3=NC(CC(=O)NCc4ccccc4OC)C(=O)N23)cc1Cl (centres undefined) | 1.0%
78 | COc1ccccc1N1CCN(S(=O)(=O)CCNC(=O)C(c2ccccc2)c2ccccc2)CC1 | 0.0%
79 | CCOC(=O)N1CCc2c(sc(NCc3cccc(F)c3)c2C(=O)Nc2ccc(OC)cc2)C1 | -1.8%
80 | CCc1cccc(C)c1NC(=O)CN1C(=O)c2ccccc2Sc2ncccc21 | -6.5%
81 | CCCCc1nn2c(=O)cc(COC(=O)c3cccc(Cl)c3)nc2s1 | -8.1%
82 | CCCCC12CN3CC(C)(CN(C1)C3c1cc(Br)ccc1O)C2=O (centres undefined) | -2.8%
83 | CCOc1ccc(CNS(=O)(=O)c2cc3c(cc2C)NC(=O)CO3)cc1 | -4.3%
84 | CCC(=O)N1CCc2cc(Br)cc(S(=O)(=O)N3CCCC(C(=O)N(C)c4ccc(Br)cc4)C3)c21 (centres undefined) | -1.8%
85 | Cn1nnc2c(NCc3ccccc3)ncnc21 | 0.7%
86 | O=C(CSc1nc(-c2ccc(F)cc2)cc(C(F)(F)F)n1)NCCc1ccccc1 | -2.2%
87 | CCOC(=O)c1sc2ccccc2c1S(=O)(=O)NCc1ccccc1OC | -20%
88 | COc1cccc(-n2c(SCc3ccc(F)cc3)nc3c([nH]c4ccccc43)c2=O)c1 | -17%
89 | COC(=O)[C@]12CCCCC=C1N(CCc1ccc(OC)c(OC)c1)C(=O)[C@H](CC(=O)N1CCCC1)C2 | 1.9%
90 | Cc1cc(NC(=O)CN2C(=O)C(C)(C)c3ccccc32)ccc1Br | 0.3%
91 | COC(=O)c1ccc(NC(=O)CCn2cnnn2)c(C)c1 | 0.3%
92 | O=C(Cn1ncc2c3ccccc3n(Cc3cccc(Cl)c3)c2c1=O)N1CCCCC1 | 0.2%
93 | CCc1ccc2nc(N3CCC(C(=O)O)CC3)sc2c1 | 1.0%
94 | COc1ccccc1CNC(=O)COc1cc(=O)n(C)c2ccccc12 | -8.9%
95 | COc1cc(NC(=O)Cn2cnc3c2c(=O)n(C)c(=O)n3C)c(OC)cc1Cl | 0.3%
96 | Cc1ccc(C)c(N2CCN(CCCNC(=O)c3cnn(-c4ccccc4)c3C3CCN(C(=O)OC(C)(C)C)CC3)CC2)c1 | -1.0%
97 | Cc1cc(C)cc(Cn2cc(CN3CC(N4CCN(CCO)CC4)CS3(=O)=O)nn2)c1 (centres undefined) | 0.0%
98 | COc1ccc(-c2nnc(SCC(=O)Nc3cccc(C(F)(F)F)c3)s2)cc1 | -7.4%
99 | O=C(CSc1n[nH]c(-c2ccccc2Cl)n1)NCc1ccc(F)cc1 | 0.8%
100 | COc1cccc(C2=Cc3ccc(F)cc3C(CC(C)=O)N2c2ccc(-c3cncnc3)cc2)c1 (centres undefined) | ?
101 | CC1=C(C(=O)Nc2ccc(C)cc2C)C(c2ccccc2F)n2nc(SCC(=O)c3ccc(C)cc3)nc2N1 (centres undefined) | -4.9%
102 | CCOC(=O)c1cc(OC(=O)c2cccc(F)c2)n(-c2ccccc2)n1 | -12%

From PubChem BioAssay

An excerpt, so the mix of outcomes need not match the whole.
